NPYLR7 agonist – activates Aedes aegypti NPYLR7 receptor; HEK293T NPYLR7/Galpha15, GCaMP6s calcium fluorescence; activation, % at 10 µM; 270,000 compounds, 0.15% hits; in the data active = activation above about 40%;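 also: 0% = vehicle and 100% = reference agonist at the receptor; some compounds past the cut are filed as inactive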
NPYLR7 agonist max-min – second read-out of NPYLR7 agonist, no call of its own (marks repeat the call); activation, %; measured here: Max-Min RFU normalised activation; some inactives read as strong as hits;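 span of the calcium signal over five minutes; 0% = vehicle and 100% = native peptide agonist; compound fluorescence can raise it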
The depositor's hits bear a star.

SMILES	NPYLR7 agonist	NPYLR7 agonist max-min
N#Cc1ccc(N2C(=O)C3C4C=CC(C4)C3C2=O)cc1 (stereo unspecified)	1	-2
Cc1ccccc1-n1c(SCCc2ccncc2)nnc1-c1cccnc1	1	-5
COc1ccc(CN2CCCn3cccc3C2c2cccc(C)c2)cc1 (stereo unspecified)	-6	7
COC(=O)[C@@H]1C[C@H](NS(=O)(=O)c2ccc(Cl)s2)CN1C	2	1
Oc1ccc(C=NN2CCN(c3ccccc3)CC2)cc1O	-3	-5
CCCCCC(C)NCc1cnc(SC)nc1N1CCCC1 (stereo unspecified)	4	3
COCCN(CC1CCN(Cc2ccccc2OC)CC1)C(=O)C1CC=CCC1 (stereo unspecified)	8	6
CC(=O)c1cn(C2OC(CO)C3OC(C)(C)OC32)c(=O)n(C)c1=O (stereo unspecified)	1	0
c1cncc(-c2nc(Oc3ccc4c(c3)OCO4)c3ccccc3n2)c1	21	16
CCOC(=O)c1nn(-c2ccccc2C)c(=O)cc1N1CCN(c2ccc(F)c(Cl)c2)CC1	8	3
CCCCCc1ccc(C(=O)N2CCCN(C(=O)CN3CCc4sccc4C3c3cccc(F)c3)CC2)cc1 (stereo unspecified)	-2	-2
Cn1c(SCc2cc(Cl)c3c(c2)OCCO3)nnc1-c1ccco1	1	8
O=C(C=Cc1cccs1)N1CCN(S(=O)(=O)c2cccs2)CC1	-1	-5
COc1ccc(C(=O)COc2cc(=O)n3ccccc3n2)cc1OC	-4	1
N#Cc1cc2c(=O)n3ccccc3nc2n(CCCN2CCOCC2)c1=O	0	1
O=C(NCCCn1nc(-c2ccncc2)ccc1=O)Nc1ccccc1C(F)(F)F	8	1
Cc1ccc(Cc2nnc(Nc3ccccc3C)[nH]c2=O)cc1	6	3
COc1ccc(C2CC(=O)C3C(=Nc4ccccc4NC3c3ccc(OC)cc3OC)C2)cc1 (stereo unspecified)	2	0
CC(C)(C)NC(=O)CN1CCN(C(=O)C2(C)Cc3ccccc3C(=O)O2)CC1 (stereo unspecified)	3	2
c1ccc(-c2ncsc2CNCc2nc(-c3ccco3)no2)cc1	-11	-13
Cc1cc(CC(O)(/C=C/c2ccccc2)c2ccccc2)on1 (stereo unspecified)	-5	-1
CCOC(=O)c1c(NC(=O)c2ccc(F)c(F)c2)sc2c1CCC(C#N)(c1ccccc1)C2 (stereo unspecified)	2	-1
COc1ccc(-c2noc(COc3cc(Cl)ccc3Cl)n2)cc1OC	0	28
CC(C)C(=O)Nc1cccnc1-c1ccc(C(C)N2CCOCC2)cc1 (stereo unspecified)	21	15
O=C(CCC1CCN(C(=O)C2(N3CCCC3)CCCC2)CC1)Nc1ccccc1	-1	-4

Carrying on.
SMILES	NPYLR7 agonist	NPYLR7 agonist max-min
c1ccc(CCCCNC2CCC3(CCNCC3)CC2)nc1	5	1
COc1ccccc1C(=O)Oc1coc(CSc2nccc(C)n2)cc1=O	-17	-10
CCN(CC)C(=O)Oc1ccc2c(ccn2Cc2cccc(F)c2)c1NC(=O)C(C)Oc1ccccc1 (stereo unspecified)	-4	-12
CCn1ccc(C(=O)NCc2cccnc2Oc2ccc(C)nc2)n1	1	-1
CCOC(=O)CCc1c(C)nc2ncnn2c1N1CCN(C(=O)c2cc(OC)cc(OC)c2)CC1	-4	-4
CCOC(=O)c1nc2cc(Cl)c(Cl)cc2nc1N1CCCN(C(=O)c2c(C)noc2C)CC1	6	1
COc1ccc(N2CCN(CCc3c[nH]c4ccc(NC(=O)CO[C@@H]5C[C@H](C)CC[C@H]5C(C)C)cc34)CC2)cc1	7	-1
COc1ccc(S(=O)(=O)N2CCC(Cc3ccccc3)CC2)cc1N1CCN(C(=O)CCCCCCl)CC1	7	13
O=C(Cc1c[nH]c2ccccc12)NN=C1CCN(C2CCCC2)CC1	-2	-2
C=CCn1c(SCC(=O)NCCCN2CCOCC2)nc2sc(C)c(C)c2c1=O	-3	-6
Cc1ccc2c(c1)c(N=NC(=O)COc1ccc(Cl)cc1Cl)c(O)n2C	-5	-15
CN(C)c1nc(N)nc(COC(=O)COc2cccc(C(F)(F)F)c2)n1	-4	-4
C[C@H](C(=O)NCCOc1ccccc1)N1Cc2ccc(N3CCOCC3)nc2C1=O	7	4
O=C(CC(Nc1ccc(Cl)cc1Cl)C(=O)O)c1ccccc1 (stereo unspecified)	5	12
CC1(C(=O)NS(=O)(=O)c2ccc(C#N)cc2)CCN1C(=O)COc1ccc(Cl)cc1 (stereo unspecified)	2	2
CC(C)(C)c1csc(NC(=O)CCc2cccnc2)n1	6	7
CN1CCN(c2ccc(C(F)(F)F)cc2NC(=O)C2CCCC2)CC1	11	7
COc1ccc(CC(=O)N2CCC(c3nc(-c4ccccc4F)no3)CC2)cc1	2	0
CCOC(=O)[C@H]1[C@@H](O)C(=O)NC12CCN(C(=O)c1cc3ccccc3s1)CC2	4	15
CC(=O)NCc1ccc(-c2csc(NC(=O)CCc3c(C)noc3C)n2)s1	0	5
CC(NC(=O)c1cc(NC(=O)c2cc(Cl)cc(Cl)c2)ccc1N1CCCCC1)c1ccccc1 (stereo unspecified)	19	27
Cc1ccccc1C(=O)N[C@@H]1CCCCC1NC(=O)C1CCCN(C(=O)c2cc(Cl)cc(Cl)c2)C1 (stereo partly specified)	-5	-2
Cc1nnc(-c2cc3ccccc3n2CC(=O)Nc2ccc3c(c2)OCO3)o1	0	0
Cc1cccc(C2c3[nH]c4ccccc4c3CCN2Cc2ccc(C#CC(C)(C)O)cc2)n1 (stereo unspecified)	22	14
COC(=O)CCc1c(C)nn(-c2ccc(C(=O)N3CCNC(=O)C3C)cc2)c1C (stereo unspecified)	-1	-1

Next part:
SMILES	NPYLR7 agonist	NPYLR7 agonist max-min
COc1cccc(Nc2nc(C(N)CCc3ccccc3)cs2)n1 (stereo unspecified)	-1	-9
COc1ccc(C(=O)N2CCCC(CCC(=O)NCc3ccc(C)o3)C2)cc1F (stereo unspecified)	17	1
CCC1CN(C(=O)c2cccnc2SC)CCC(=O)N1Cc1ccccc1 (stereo unspecified)	-2	-3
O=C(NC1CCCCCC1)C1CCC(CNc2c(N3CCCC3)c(=O)c2=O)CC1 (stereo unspecified)	7	2
CC(C)c1ccc(NC(=O)O[C@@H]2CO[C@H]3[C@@H]2OC[C@@H]3NC(=O)c2cncnc2)cc1	-12	-17
O=C1OCC(CO)(CO)N=C1NNc1ccc(I)cc1	12	12
CCCc1cnc(C)nc1N1CCN(Cc2nc3ccccc3[nH]2)CC1	20	11
COc1cc(C)ccc1S(=O)(=O)NC(=O)C1(C)CCN1C(=O)c1ccc(C2CCCCC2)cc1 (stereo unspecified)	3	1
O=C(N[C@@H](CO)c1ccccc1)c1ccc(NC(=O)C2CCC2)cc1	9	5
COCc1cnc2c(c1SCC(=O)Nc1ccccc1OC)c(=O)n(C)c(=O)n2C	-7	-3
COCCCN(Cc1csc(COc2c(OC)cccc2OC)n1)C(=O)c1cccs1	3	6
COCCn1c(C)cc(O)c(C(c2cccnc2)N2CCN(c3ccccn3)CC2)c1=O (stereo unspecified)	11	5
COc1ccc(C)cc1NC(=O)N1CCN(C(c2ccc(F)cc2)c2ccc(F)cc2)CC1	31	16
CCOC(=O)c1cnc2cc(C(F)(F)F)ccc2c1Nc1cccc(O)c1	16	9
CC1(C(=O)N2CCN(c3ccc(C(N)=O)cc3)CC2)CC1(Cl)Cl (stereo unspecified)	-4	54
Cc1ncc(COC(=O)C2Oc3ccccc3C2C)s1 (stereo unspecified)	6	4
COc1cc(S(=O)(=O)N(C)Cc2ccc(C)cc2)ccc1NC(C)=O	5	5
COC(=O)c1ccc(CSc2nc(=O)n3ccc(C)cc3n2)cc1	2	-1
CC(C)C(=O)N1CCC(C(=O)Nc2ccc(NC(=O)CN3CCOCC3)cc2)CC1	12	10
CC(C)c1ccc(S(=O)(=O)NC2CC(C)(C)NC(C)(C)C2)cc1	-2	-3
CC(=O)Cn1c(=O)c2c(nc3n(-c4ccc(C)cc4)c(C)c(C)n23)n(C)c1=O	-1	-1
Cc1ccc(S(=O)(=O)N2CCN(C(=O)CCSc3ccccc3F)CC2)cc1	0	6
COc1ccc(C=NOCc2ccc(Cl)c(Cl)c2)c(OC)c1	3	1
Cc1cncc(N2CCN(c3ccccn3)CC2)n1	4	2
CCOc1cc(/C=N\n2cnnc2)cc(Cl)c1OCc1ccc(F)cc1	-3	-4

Later entries:
SMILES	NPYLR7 agonist	NPYLR7 agonist max-min
COc1ccc(C(=O)N2CCOCC2)cc1S(=O)(=O)N(C)Cc1ccccc1	0	-9
Cc1cc(Oc2cc(N3CCN(S(=O)(=O)C(C)C)CC3)ncn2)ccc1Cl	7	8
COc1ccc(OC)c(C(=O)Nc2cc(C)nc(N3CCOCC3)n2)c1	1	-2
COCCNC(=O)[C@@]1(OCc2cccc(OC)c2)CC(OCc2cccc(C(F)(F)F)c2)[C@@H]2OC(C)(C)O[C@@H]2C1 (stereo partly specified)	-9	-6
CC(C)Oc1ccc(S(=O)(=O)N2CCOCC2)cc1NC(=O)C(C)n1c(=O)oc2ccccc21 (stereo unspecified)	0	-2
CCCc1cc(=O)[nH]c(SCC(=O)N2CCN(c3ccccc3)CC2)n1	9	3
COc1c(OC)c2occc2c2oc(=O)ccc12	-11	-14
Cc1nc(-c2cccc(C(F)(F)F)c2)nc(N2CCN(C(=O)NC34CC5CC(CC(C5)C3)C4)CC2)c1C	7	13
COc1ccc(-c2c3c(=O)n(Cc4ccco4)ccc3nc3ncnn23)cc1	-11	-19
COCC(=O)N1CCN(c2ccc3c(c2)CCC3)C(=O)C1C (stereo unspecified)	3	7
O=S(=O)(Nc1nccnc1N1CCN(S(=O)(=O)c2ccc3c(c2)OCCO3)CC1)c1ccc(F)cc1	13	12
CCOCCCn1c(SCc2noc(-c3ccccc3OC)n2)nc2cc(S(=O)(=O)N3CCOCC3)ccc21	5	3
CCOC(=O)c1nn(-c2ccccc2C)c(=O)cc1OCC(=O)Nc1cccc(OC)c1	9	4

A different layout for 28 compounds above.
mol,NPYLR7 agonist,NPYLR7 agonist max-min
COCCCN(Cc1csc(COc2c(OC)cccc2OC)n1)C(=O)c1cccs1,3,6
COCCn1c(C)cc(O)c(C(c2cccnc2)N2CCN(c3ccccn3)CC2)c1=O (stereo unspecified),11,5
COc1ccc(C)cc1NC(=O)N1CCN(C(c2ccc(F)cc2)c2ccc(F)cc2)CC1,31,16
CCOC(=O)c1cnc2cc(C(F)(F)F)ccc2c1Nc1cccc(O)c1,16,9
CC1(C(=O)N2CCN(c3ccc(C(N)=O)cc3)CC2)CC1(Cl)Cl (stereo unspecified),-4,54
Cc1ncc(COC(=O)C2Oc3ccccc3C2C)s1 (stereo unspecified),6,4
COc1cc(S(=O)(=O)N(C)Cc2ccc(C)cc2)ccc1NC(C)=O,5,5
COC(=O)c1ccc(CSc2nc(=O)n3ccc(C)cc3n2)cc1,2,-1
CC(C)C(=O)N1CCC(C(=O)Nc2ccc(NC(=O)CN3CCOCC3)cc2)CC1,12,10
CC(C)c1ccc(S(=O)(=O)NC2CC(C)(C)NC(C)(C)C2)cc1,-2,-3
CC(=O)Cn1c(=O)c2c(nc3n(-c4ccc(C)cc4)c(C)c(C)n23)n(C)c1=O,-1,-1
Cc1ccc(S(=O)(=O)N2CCN(C(=O)CCSc3ccccc3F)CC2)cc1,0,6
COc1ccc(C=NOCc2ccc(Cl)c(Cl)c2)c(OC)c1,3,1
Cc1cncc(N2CCN(c3ccccn3)CC2)n1,4,2
CCOc1cc(/C=N\n2cnnc2)cc(Cl)c1OCc1ccc(F)cc1,-3,-4
COc1ccc(C(=O)N2CCOCC2)cc1S(=O)(=O)N(C)Cc1ccccc1,0,-9
Cc1cc(Oc2cc(N3CCN(S(=O)(=O)C(C)C)CC3)ncn2)ccc1Cl,7,8
COc1ccc(OC)c(C(=O)Nc2cc(C)nc(N3CCOCC3)n2)c1,1,-2
COCCNC(=O)[C@@]1(OCc2cccc(OC)c2)CC(OCc2cccc(C(F)(F)F)c2)[C@@H]2OC(C)(C)O[C@@H]2C1 (stereo partly specified),-9,-6
CC(C)Oc1ccc(S(=O)(=O)N2CCOCC2)cc1NC(=O)C(C)n1c(=O)oc2ccccc21 (stereo unspecified),0,-2
CCCc1cc(=O)[nH]c(SCC(=O)N2CCN(c3ccccc3)CC2)n1,9,3
COc1c(OC)c2occc2c2oc(=O)ccc12,-11,-14
Cc1nc(-c2cccc(C(F)(F)F)c2)nc(N2CCN(C(=O)NC34CC5CC(CC(C5)C3)C4)CC2)c1C,7,13
COc1ccc(-c2c3c(=O)n(Cc4ccco4)ccc3nc3ncnn23)cc1,-11,-19
COCC(=O)N1CCN(c2ccc3c(c2)CCC3)C(=O)C1C (stereo unspecified),3,7
O=S(=O)(Nc1nccnc1N1CCN(S(=O)(=O)c2ccc3c(c2)OCCO3)CC1)c1ccc(F)cc1,13,12
CCOCCCn1c(SCc2noc(-c3ccccc3OC)n2)nc2cc(S(=O)(=O)N3CCOCC3)ccc21,5,3
CCOC(=O)c1nn(-c2ccccc2C)c(=O)cc1OCC(=O)Nc1cccc(OC)c1,9,4

Not all compounds are listed. The share of hits here may be higher or lower than overall.
